Screens: PubChem, National Center for Advancing Translational Sciences (NCATS)
TRPML1 inh: qHTS for Inhibitors of the Human Mucolipin Transient Receptor Potential 1 (TRPML1); TRPML1-inducible cells, Ca2+ dye fluorescence, FDSS; hits give low values; inhibition of EC80 agonist-evoked calcium signal; activity change, negative = inhibition, % (test concentration not listed); 390,000 compounds, 0.02% hits; AID 624415, 2012; in the data active means activity change below about -50%; inconclusive means about -30% to -50%; inactive means above about -30%;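 also: stimulus is agonist 54-4 at its EC80 concentration; % is scaled to controls: 0 for no effect and ±100 for the full control effect; compound concentration not given in the record; the text of the record puts the active cut at -80%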
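TRPML1-DL cells, Tet-induced overnight (~16 h, 37 °C) at 1,500 cells/well, were loaded with Ca8 no-wash dye plus quencher for 45-90 min at room temperature. Compounds were pinned during FDSS kinetic reading; agonist 54-4 at EC80 (4 uM final) then added.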
TRPML1 agonist: qHTS for Agonists of the Human Mucolipin Transient Receptor Potential 1 (TRPML1); Mucolipin-1 (Homo sapiens), Q9GZU1; TRPML1-expressing cells, Ca2+ dye fluorescence, FDSS; host cell line not named in the record; reference of the full effect not given here; activation, % (no concentration beside the values); 410,000 compounds, 0.12% hits; in the data active = activation above about 50%; inconclusive = about 30% to 50%; inactive = below about 30%; also: 0% is about no effect; the text of the record puts the active cut at 80%
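In this qHTS format, compounds were pin-transferred onto Ca8-dye-loaded TRPML1-DL cells induced with Tet overnight, and intracellular Ca2+ fluorescence was recorded kinetically for 110 s after a 10 s baseline. A subsequent 4uM final 54-4 (EC80) addition followed by a second 110 s read served as the antagonist phase.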
Six1-Eya2 blk: qHTS Assay for Inhibitors of the Six1/Eya2 Interaction; Homeobox protein SIX1 (Homo sapiens) + Protein phosphatase EYA2 (Homo sapiens), …; AlphaScreen GST-Six1/His-Eya2 binding, biochemical; hits give low values; control for the full effect not named in the record; activity change, % (concentration not given with the values); 360,000 compounds, 0.56% hits; in the data active = activity change below about -65%; inconclusive = about -30% to -65%; inactive = above about -30%; also: % is scaled to controls: 0 for no effect and ±100 for the full control effect
Target sequence (O00167 whole entry, looked up): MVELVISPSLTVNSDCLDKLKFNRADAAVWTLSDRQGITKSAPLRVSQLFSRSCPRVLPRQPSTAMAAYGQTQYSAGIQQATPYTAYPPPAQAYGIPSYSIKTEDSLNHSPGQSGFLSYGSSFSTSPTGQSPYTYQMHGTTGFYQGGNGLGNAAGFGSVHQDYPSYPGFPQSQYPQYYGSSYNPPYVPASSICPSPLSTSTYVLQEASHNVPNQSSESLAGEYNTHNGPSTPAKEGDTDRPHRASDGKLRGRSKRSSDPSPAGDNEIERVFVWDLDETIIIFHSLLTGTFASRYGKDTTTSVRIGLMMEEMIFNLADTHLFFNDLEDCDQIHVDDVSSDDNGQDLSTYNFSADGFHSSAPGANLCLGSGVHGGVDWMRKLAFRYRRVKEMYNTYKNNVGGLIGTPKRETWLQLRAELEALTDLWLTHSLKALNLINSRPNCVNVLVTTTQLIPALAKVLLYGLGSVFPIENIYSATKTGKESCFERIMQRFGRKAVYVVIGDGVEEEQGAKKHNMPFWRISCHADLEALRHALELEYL
Target sequence (Q15475 whole entry, looked up): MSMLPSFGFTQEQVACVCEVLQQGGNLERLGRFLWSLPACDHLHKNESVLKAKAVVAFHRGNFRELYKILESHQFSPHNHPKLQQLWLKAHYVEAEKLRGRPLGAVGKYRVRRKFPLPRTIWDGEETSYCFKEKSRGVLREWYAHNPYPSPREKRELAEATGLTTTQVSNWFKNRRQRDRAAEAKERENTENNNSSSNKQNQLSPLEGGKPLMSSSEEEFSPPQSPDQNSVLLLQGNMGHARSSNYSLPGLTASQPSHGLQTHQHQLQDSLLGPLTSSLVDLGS
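AlphaScreen with GST-Six1 and His-Eya2 (5X mix: 250 nM and 500 nM), glutathione donor and nickel acceptor beads; buffer 50 mM Tris pH 8.0, 300 mM NaCl, 1 mM TCEP; 1 h at 37 C in the dark.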
CtBP-E1A inh: qHTS Assay for Inhibitors of the CtBP/E1A Interaction. AlphaScreen GST-E1A/His-CtBP binding, 1536-well; hits give low values; control for the full effect not named in the record. AID 651724, 2012. 340,000 compounds, 0.49% hits. activity change, % (concentration not given with the values). CtBP / adenovirus E1A interaction (AlphaScreen); in the data active means activity change below about -65%; inconclusive means about -30% to -65%; inactive means above about -30%; also: % is scaled to controls: 0 for no effect and ±100 for the full control effect
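In 5 uL wells, 23 nL compound meets equimolar GST-E1A and His-CtBP (5X stock 125 nM each) for 2 h, 37 °C. Beads (5X, 50 ug/mL) then 1 h, 37 °C, dark.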
PINK1 modulator: A Quantitative High throughput Screen to Identify Chemical Modulators of PINK1 Expression | Potency, µM (titrated, usually from 76.6 µM), for inactives: at the top dose activation (PINK1 increase), usual class: activators | 410,000 compounds, 0.2% hits | PINK1 immunofluorescence, high-content cytometry, 24 h | AID 624263, 2012; active = well fitted activation curve with a large enough effect; inconclusive = small, poorly fitted or top-dose-only effect; inactive = flat fitted curve, though single readings scatter; cell line not stated here;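 also: potency is read from the fitted curve at half-maximal effect; % of control where 0% means no effect; nearly all actives have a fitted effect of over 65% in size; a mitochondrial uncoupler was the plate control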
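Stable cell line treated 24 h with compounds at 5 concentrations (CCCP controls), then fixed and immunostained for PINK1 plus nuclear and cell stains; PINK1 immunofluorescence quantified by laser-scanning microplate cytometry.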
D2 ag: Beta-Arrestin HTS for Positive Allosteric Modulators of the Human D2 Dopamine Receptor: Agonists; 360,000 compounds, 0.084% hits; D(2) dopamine receptor (Homo sapiens), P14416; DiscoveRx PathHunter D2 beta-arrestin, luminescence, 90 min; 100% = 57 uM dopamine signal; activation, % (no concentration beside the values); in the data active = activation above about 40%; inconclusive = about 15% to 40%; inactive = below about 15%; also: compound concentration not given in the record; the text of the record calls up to 30% inactive
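DiscoveRx PathHunter D2 beta-arrestin cells (2,100/well) attached overnight, then compound-stimulated 90 min at 37 C in HBSS/10 mM HEPES/0.1% Tween-20 buffer; beta-galactosidase complementation read by luminescence after 1 h at ambient temperature. Dopamine 57 uM final (EC100) as control.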
The depositor's hits bear a star; ? = inconclusive; / = not tested or not shown; & = joins results of further samples; [ ] = another dose, or the depositor's remark.

SMILES | TRPML1 inh | TRPML1 agonist | Six1-Eya2 blk | CtBP-E1A inh | PINK1 modulator | D2 ag
CN(C(=O)CCn1c(=S)oc2ccccc21)C1CCCCC1 | 3 | -0.2 | -3 | 7 | 3.0% | -6.0
Cc1ccc(C)c(NS(=O)(=O)c2ccc(OCC(=O)NCc3ccccn3)cc2)c1 | -4 | -0.6 | 1 | 0 | -0.9% | 3.6
CN(C)S(=O)(=O)c1ccc(C(=O)Oc2coc(CSc3ncccn3)cc2=O)cc1 | 19 | 0.4 | 1 | / | 0.1% | -5.0
O=C(Nc1nnc(SCc2ccccn2)s1)C1CC(=O)N(c2ccc(F)cc2)C1 (configuration not stated) | 14 | 0.6 | -21 | 4 | -0.1% | 3.4
OCCNc1ncnc2c1ncn2[C@H]1CN(Cc2ccc3c(c2)OCO3)C[C@@H](CO)O1 | / | -0.4 | -1 | 6 | 0.4% | -4.5
COc1cccc(-c2csc(NC(=O)C3CC3)n2)c1 | -8 | -1.1 | -13 | -6 | 2.9% | -2.7
CC(=O)c1cccc(N(C(=O)Cn2nnc3ccccc32)C(C(=O)NCC2CCCO2)c2ccc(N3CCOCC3)cc2)c1 (configuration not stated) | 20 | 0.2 | 16 | -22 | 3.9% | -7.1
CC(=O)Nc1ccc(NC(=O)c2ccccc2S(=O)(=O)c2ccccc2[N+](=O)[O-])cc1 | 5 | -0.2 | -3 | 1 | 0.7% | -1.0
CCOc1ccccc1/C=N/NC(=O)c1nnn(-c2nonc2N)c1CN1CCCC1 | 2 | 0.2 | 5 | / | 6.7% | -2.9
COc1cc(OC)c(NC(=O)c2oc3ccc4c(c3c2C)C(=O)CC(C)(C)O4)cc1Cl | -6 | 0.0 | / | / | 0.9% | /
OCc1ncc(-c2ccccc2)s1 | -13 | 2.4 | 1 | / | 1.1% | -1.8
COc1ccc(OC)c(CN2CCN(C(=O)[C@@H](NC(=O)c3cccc(C)c3)C(C)C)CC2)c1 | -2 | 0.1 | -7 | 17 | -0.4% | -1.5
Cn1c(=O)[nH]c(=O)c2c1nc(N1CCc3ccccc3C1)n2CCSc1nc2ccccc2s1 | -3 | -0.7 | -1 | 6 | 7.9%[38.3 µM] | -1.7
Cc1ccc(C2=CSC3=NNC4(CCCCC4)NN23)cc1 | 37 | 0.8 | 9 | / | 7.3% | -8.3
CC(=O)Nc1ccc(C(=O)COC(=O)C2CCCCC2)c(F)c1 | 2 | -0.3 | 4 | 9 | 2.2% | -0.2
O=C(C[n+]1ccc(-c2ccccc2)cc1)Nc1ccc([N+](=O)[O-])cc1 | 6 | -0.3 | -6 | / | 0.6% | -4.9
CC(C)OCCCNC(=O)c1cccs1 | 30 | 0.7 | 3 | 5 | 0.1%[38.3 µM] | 1.6
CNC(=O)C1CCN(S(=O)(=O)c2c(C)noc2/C=C/c2ccccc2F)CC1 | -3 | -0.6 | 1 | 2 | 6.4% | -6.8
C=CCn1c(C)cc(-c2csc(NCC)n2)c1C | -11 | -0.1 | -2 | 6 | ? | -0.2
COc1ccc2[nH]c3c(c2c1)CCN1C(=O)C(CC(=O)NCc2ccco2)C[C@H](C(=O)N2CCCCC2)[C@@]31C (some centres not stated) | -2 | -1.1 | 0 | 0 | 0.1% | -3.0
Cc1noc(C)c1NC(=O)N(C)C[C@H]1Oc2ccc(NC(=O)c3ccncc3)cc2C(=O)N([C@H](C)CO)C[C@@H]1C | -1 | -0.5 | 5 | 8 | 1.7% | -1.3
N#C/C(=C\c1ccc(OCc2ccc(F)cc2)cc1)C(=O)Nc1cccc(C(=O)O)c1 | -8 | -0.4 | 1 | 2 | 2.1% | 1.6
Cc1ccc2c(c1)-c1nc3ccccc3cc1C2=NC1CCCCC1 | 33 | 2.7 | 1 | 3 | 15% | -7.4
O=C(CN1CCc2cc3c(cc2C1)OCCCO3)Nc1ccc(S(=O)(=O)N2CCCC2)cc1 | 7 | 0.2 | 1 | -5 | -0.5% | 0.9
CCOc1ccc(OCC)c(NC(=O)CN2CCN(c3cc(C)ccc3C)CC2)c1 | 16 | -0.6 | -19 | -21 | 0.5%[38.3 µM] | -2.2
O=C(Nc1ccc(N2CCN(C(=O)C3CC3)CC2)cc1)c1cccs1 | -7 | 1.7 | 13 | 0 | -2.1% | -2.2
COCCn1c(CCC(=O)O)nc2c1c(=O)[nH]c(=O)n2CC(C)C | -8 | -0.5 | 5 | 11 | 3.2% | -2.8
CCn1c(SCc2cc(=O)n3ccsc3n2)nc2ccccc21 | -23 | 5.3 | 0 | -1 | 2.4% | 2.5
C#CCNC(=O)C1=C[C@H](c2coc3ccccc3c2=O)C[C@H](OCCCCO)O1 | -7 | -0.6 | 3 | 6 | 1.7% | -1.0
CCCCN(C(=O)Nc1ccc(OCC)cc1)C1CCN(C(C)=O)CC1 | -24&11 | 1.5&0.1 | -1 | 4 | 1.2% | -1.5
CCN(c1ccccc1)S(=O)(=O)c1ccc2[nH]cc(C(=O)NC3CCCCC3)c(=O)c2c1 | -3 | -0.7 | / | / | 0.5% | /
CCS(=O)(=O)N(CC(=O)Nc1cccc2ccccc12)c1ccc(OC)cc1 | -8 | -0.8 | -2 | 10 | -0.6% | -0.3
NNC(=O)c1ccc(Cn2cc(Br)cn2)o1 | 16 | 0.4 | 3 | / | -0.5% | 0.8
CCOC(=O)c1sc(NC(=O)CSC(=S)N2CCN(C)CC2)nc1C | 1 | 0.0 | -24 | 2 | 15% | -0.3
O=C(CSc1nc(=O)n(Cc2ccco2)c2c1CCC2)NCc1ccc(F)cc1 | -1 | -0.4 | / | / | 2.8% | /
Cc1ccc(C(=O)SC2=NCCS2)cc1 | -13 | 0.3 | 21 | 12 | 3.3%[38.3 µM] | -5.2
CCN(CC)c1ccc(C2Nc3ccccc3-c3cc(C)nn32)cc1 (configuration not stated) | -4 | 0.6 | / | / | -1.6% | /
O=C(c1ccco1)N1CCN(CCOCCOc2cccc3ccccc23)CC1 | -9 | -0.4 | -5 | 3 | 4.3%[38.3 µM] | ?
CCCc1nn(-c2cc(Cl)ccc2OC)c2c1C(=O)CC(C)(C)C2 | 13 | -0.1 | 0 | 7 | ? | -0.4
CCN(CC)c1ccc(/C=C2\C(=N)N3N=C(CC(=O)N4CCOCC4)SC3=NC2=O)cc1 | -3 | ? | 11 | / | 3.8% | -1.1
O=S(=O)(Nc1cccc(S(=O)(=O)N2CCOCC2)c1)c1cccs1 | -14 | 0.7 | 0 | -4 | -0.2% | -2.3
COc1ccc(S(=O)(=O)N(CCCN2CCOCC2)Cc2ccc(OC)c(OC)c2)cc1 | -10 | 0.1 | -5 | 0 | -2.2% | -4.9
Cc1ccc(S(=O)(=O)Nc2cccc(C(=O)NCC3(N4CCCCC4)CCCCC3)c2)cc1F | -1 | 0.8 | 0 | 1 | -0.3% | -0.4
Cc1ccccc1NC(=S)NC(C)C(c1cccs1)N1CCOCC1 (configuration not stated) | -2 | 0.2 | -5 | 1 | 0.7% | -4.1
Cc1ccc(N2C(=O)CSC23C(=O)N(CC(=O)NCc2ccccc2)c2ccccc23)cc1 (configuration not stated) | 48 | 2.1 | / | / | -4.8% | /
O=c1[nH]c(=O)n(C2OC(CO)C(O)C2O)cc1Br (configuration not stated) | 14 | 0.4 | 8 | 1 | 0.7% | -4.2
CCC1(CC)NC(=O)N(CC(=O)OCC(=O)Nc2ccccc2OC(F)F)C1=O | -1 | -0.3 | 2 | -1 | 0.6% | -2.3
CN1CCN(CCC(=O)N/N=C/c2ccccn2)CC1 | -9 | -0.6 | -1 | -3 | 1.0% | -7.7

Some of the entries above in a different format:
Results follow in this order: TRPML1 inh, TRPML1 agonist, Six1-Eya2 blk, CtBP-E1A inh, PINK1 modulator, D2 ag
Cc1ccc(S(=O)(=O)Nc2cccc(C(=O)NCC3(N4CCCCC4)CCCCC3)c2)cc1F
 : -1, 0.8, 0, 1, -0.3%, -0.4
CCC1(CC)NC(=O)N(CC(=O)OCC(=O)Nc2ccccc2OC(F)F)C1=O
 : -1, -0.3, 2, -1, 0.6%, -2.3

(listing goes on)
SMILES | TRPML1 inh | TRPML1 agonist | Six1-Eya2 blk | CtBP-E1A inh | PINK1 modulator | D2 ag
CCCC1(c2ccccc2)NC(=O)N(CC(=O)Nc2sc(-c3ccccc3)cc2C(=O)OCC)C1=O (configuration not stated) | 14 | -0.5 | -2 | 6 | 0.3% | -2.9
Cc1ccc(CCNC(=O)c2cc3c(s2)-c2c(C)cccc2OC3)cc1 | -3 | 0.8 | / | / | 2.4% | /
CCCc1cc(=O)[nH]c(SCC(=O)N(CC)C2CCS(=O)(=O)C2)n1 (configuration not stated) | 7 | 4.6 | 2 | 7 | 0.4% | -1.7
CCOc1cccc(OCCCCn2cnc3ccccc3c2=O)c1 | 1 | -0.4 | 0 | -1 | 0.3% | -0.2
O=C(Nc1ccc(N2CCN(C(=O)c3ccco3)CC2)cc1)c1ccccc1Br | 3 | 2.0 | -6 | -20 | 3.4% | -7.7
CCN(Cc1nc(-c2ccccc2)no1)C(=O)c1ccco1 | -7 | 0.5 | 16 | 4 | -0.8% | 0.2
C=C(C)Cn1c2ccc(NC(=O)CCc3cccnc3)cc2c(=O)n1C | 11 | 0.1 | 2 | 1 | -0.7% | -2.4
Clc1ccccc1Cc1noc(CN2CCCCC2c2ccccn2)n1 (configuration not stated) | 5 | 0.5 | 2 | -14 | 0.8% | -1.0
COc1cc(CN2CCCC(C(=O)c3ccc(SC)cc3)C2)cc(Cl)c1O (configuration not stated) | -4 | 0.3 | -8 | 25 | -0.4% | 0.4
CS(=O)(=O)N1CCc2cc(C(=O)Nc3ccccc3Cl)ccc21 | -5 | 0.3 | 2 | 4 | 1.6% | -1.7
O=C1Nc2ccccc2Nc2ccccc21 | -5 | -0.4 | -1 | 1 | -1.2% | -2.1
Cc1nc(CNC(=O)C2CCC(=O)N(CCc3ccc(Cl)cc3)C2)sc1C (configuration not stated) | 1 | -0.4 | 12 | 5 | -0.7% | -4.5
Cc1ccc(-c2csc(N3CCC[C@@H]3C(=O)NCCn3c(-c4ccncc4)nc4ccccc43)n2)cc1 | 55 | -0.9 | -16 | -17 | -1.6% | ?
CCOC(=O)CN(C(=O)c1ccccc1)c1ccccc1C | 14 | -1.4 | 9 | 8 | -0.8% | -0.6
Cc1nnc(Sc2cc(C(=O)NC3CC3)c3ccccc3n2)s1 | 22 | -0.6 | 9 | -5 | -0.3% | -2.5
